High-throughput results (PubChem BioAssay)
Resorufin fluor – resorufin region autofluorescence; Compound fluorescence, resorufin region 547/598 nm, buffer; stronger effect = higher value; max dye-equivalent concentration, M; actives 0.04% (n = 59,000); active = above 10 nM dye equivalent; inconclusive = 1 to 10 nM; inactive = 1 nM or less; a few of its hits are not listed in these tables; note: highest value over a series up to 38 µM
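Compounds in 100 mM Tris buffer, pH 8.0, incubated 15 min at room temperature, then read with 547 nm excitation and 598 nm emission filters. Fluorescence was converted to dye-equivalent concentration using an on-plate six-point resorufin standard curve.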
TSHR ag – TSH receptor (human) agonism; P16473; HEK293-CNG-TSHR cells (CNG channel as cAMP sensor), membrane potential dye, cAMP; Potency, µM (top dose mostly 57.1 µM), inactives show top-dose activation, usual class: activators; actives 0.48% (n = 73,000); AID 926; active = well fitted activation curve of enough size with the parental cells flat; inconclusive = any curve in the parental cells; inactive = parental cells flat and receptor cells flat or falling; note: potency is the fitted concentration of half-maximal effect; % of control where 0% means no effect; weak receptor curves with flat parental cells got no call and are not listed
Target sequence (P16473 whole entry, looked up): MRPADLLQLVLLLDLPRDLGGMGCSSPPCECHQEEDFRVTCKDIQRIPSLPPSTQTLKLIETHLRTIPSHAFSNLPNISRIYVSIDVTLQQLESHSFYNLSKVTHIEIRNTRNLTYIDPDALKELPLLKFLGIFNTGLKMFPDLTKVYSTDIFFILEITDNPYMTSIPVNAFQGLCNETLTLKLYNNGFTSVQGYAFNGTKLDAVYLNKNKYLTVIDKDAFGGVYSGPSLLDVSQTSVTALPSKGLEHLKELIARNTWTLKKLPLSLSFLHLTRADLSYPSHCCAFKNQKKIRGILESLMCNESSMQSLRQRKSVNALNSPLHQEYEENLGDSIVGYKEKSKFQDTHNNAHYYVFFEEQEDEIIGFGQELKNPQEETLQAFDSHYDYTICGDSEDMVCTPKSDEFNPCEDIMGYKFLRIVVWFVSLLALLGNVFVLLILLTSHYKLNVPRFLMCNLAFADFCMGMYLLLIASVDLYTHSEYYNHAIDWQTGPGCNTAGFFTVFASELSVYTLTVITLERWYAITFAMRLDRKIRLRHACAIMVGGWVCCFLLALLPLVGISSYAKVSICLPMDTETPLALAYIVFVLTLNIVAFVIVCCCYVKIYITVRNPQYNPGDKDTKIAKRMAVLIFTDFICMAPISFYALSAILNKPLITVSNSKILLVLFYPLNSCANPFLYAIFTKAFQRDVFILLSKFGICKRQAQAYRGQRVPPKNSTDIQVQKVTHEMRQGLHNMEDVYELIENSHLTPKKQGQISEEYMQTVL
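cAMP rise detected as CNG-channel membrane depolarization by fluorescent dye (emission 590 nm), 30 min after compound, following 60 min dye loading containing 100 uM RO 20-1724 at room temperature. Cells: TSHR/CNG HEK 293, with parental CNG HEK 293 as control.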
A488 autofl – A488 region autofluorescence; compound autofluorescence, A488 spectral region, dye equivalency; stronger effect = higher value; max dye equivalency, M; actives 0.1% (n = 59,000); active = above 10 nM dye equivalent; inconclusive = 1 to 10 nM; inactive = 1 nM or less; about half of its hits are not listed in these tables;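 note: highest value over a series up to 38 µM; compound alone in buffer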
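Readout is A488 dye-equivalent concentration, calibrated by a per-plate six-point Alexa 488 series. Compounds in 100 mM Tris buffer pH 8.0 were incubated 15 min at room temperature. Plates were imaged using 480 nm excitation/540 nm emission filters.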
A647 autofl – A647 region autofluorescence; Compound fluorescence, A647 channel (570/671 nm), Tris buffer; max dye-equivalent concentration, M; 59,000 tested, under 10 active; active means above 1 µM dye equivalent; inconclusive means 0.1 to 1 µM; inactive means 0.1 µM or less;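 note: values scaled relative to a standard on each plate; highest value over a series up to 38 µM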
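Each compound's intrinsic fluorescence at 570 nm excitation and 671 nm emission is measured across its concentration series in 100 mM Tris, pH 8.0, after 15 min at room temperature, and reported relative to an A647 curve.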
AID923 – qHTS Assay for Allosteric/Competitive Inhibitors of Caspase-1: Spectroscopic Profiling in AFC Spectral Region | compound fluorescence, AFC spectral region (405/520 nm); almost no hit is shown here | Potency, µM (highest dose often 57.5 µM), inactives show at the highest dose fluorescence increase, usual class: activators | actives 1.1% (n = 75,000) | AID 923, 2007; active = well fitted activation curve with a large enough effect; inconclusive = small, poorly fitted or top-dose-only effect;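 note: potency is the fitted concentration of half-maximal effect; 0% is about no effect; scaled to a free AFC standard on each plate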
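Titrations up to 57 uM read every 20 sec for 3 min (405/520 nm) with 50 nM caspase 1 and 5 uM Ac-WEHD-AFC, pH 7.5 HEPES buffer. Fluorescence-vs-time intercept gave baseline, scaled against on-plate AFC standard.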
* = called active by the depositor; i = inactive; ? = inconclusive; . = no result given; [ ] = dose if it differs, or a comment.

SMILES | Resorufin fluor | TSHR ag | A488 autofl | A647 autofl | AID923
CCn1cnc2c1c(=O)n(CC(=O)Nc1cc(C)on1)c(=O)n2Cc1ccccc1 | i | 3% | i | 1e-09 | 0.8%
CN1C(=O)CS(=O)c2ccc(C(=O)NCCC3=CCCCC3)cc21 (stereo not drawn) | . | ? | . | . | 2.7%
COc1ccc(N2C(=O)C3CC(C)=C(C)CC3C2=O)c(OC)c1 (stereo not drawn) | i | . | i | 1.1e-09 | 1.7%
Cc1[nH]c2ccccc2c1CCC(N)=O | . | -5%[11.4 µM] | . | . | 0.8%
CCCCOc1ccc(CSc2nncn2N)cc1 | i | 0% | i | 3e-08 | 0.2%
COc1ccccc1N1CCN(Cc2ccco2)CC1 | i | ? | i | 2.2e-08 | -0.5%
S=c1[nH]nc(-c2ccncc2)n1CC1CCCO1 (stereo not drawn) | i | 1% | i | 4.4e-09 | -1.6%
CCNC(=O)N1CCNC(=O)C1CC(=O)Nc1ccc(C(=O)OCC)cc1 (stereo not drawn) | i | 1% | i | 4e-08 | 0.5%
O=C1CC(c2ccc(F)cc2)CC(O)=C1C=NCCN1CCN(C(=O)Nc2ccccc2)CC1 (stereo not drawn) | i | -5% | i | 1e-09 | -2.1%
COc1cccc(-c2nnc3sc(-c4cccs4)nn23)c1 | i | . | i | 1e-09 | .
CCOC(=O)/C=C/S(=O)(=O)c1ccc(NC(C)=O)cc1 | . | -10% | . | . | -1.1%
COc1ccc(C(=O)NCc2nnc(SCC(=O)Nc3cc(C)cc(C)c3)o2)cc1OC | i | 0%[11.4 µM] | i | 1e-09 | -0.8%
Nc1nc(SCC(=O)c2ccc(Br)cc2)c2[nH]cnc2n1 | i | 5%[11.4 µM] | i | 5.2e-08 | 1.2%[11.5 µM]
O=C(NCc1ccccn1)c1ccc2ccccc2n1 | . | 1% | . | . | -1.0%
O=S1(=O)c2cccc3cccc(c23)N1Cc1nnc(-c2ccccc2Br)o1 | i | ? | i | 1e-09 | 3.6%
Cc1noc(C(=O)Nc2c(C)n(C)n(-c3ccccc3)c2=O)c1Cl | . | 7% | . | . | 3.2%
COC(=O)CC[C@@H](C(=O)O)N1C(=O)c2ccccc2C1=O | i | -1% | i | 1e-09 | 0.7%
Cc1nnc(N(C(=O)c2cnccn2)c2ccccc2)s1 | i | -3% | i | 1.5e-08 | -0.2%
COc1ccc(OC)c(NC2=NC3(CCCCC3)N=C(N)N2)c1 | i | 12% | i | 1.6e-08 | 0.1%
Clc1ccccc1-c1nn2c(COc3ccccc3)nnc2s1 | i | ? | i | 2.5e-09 | -1.8%
CCN1CCN(c2ncnc3c2nnn3Cc2ccccc2)CC1 | i | 13% | i | 1e-09 | -0.1%
COC(c1ccccc1)C(C)C(OC)C(C)C(OC)C(C)C(C)=O (stereo not drawn) | . | 22%[11.4 µM] | . | . | -2.2%[11.5 µM]
CCC(C)(C(=O)NC1CCCCC1)N(C)C(=O)c1ccccn1 (stereo not drawn) | i | 7% | i | 2.2e-09 | -1.4%
CC(C)CNS(=O)(=O)c1ccc(CCC(=O)N2CCOCC2)cc1 | i | -1% | i | 5.5e-09 | 1.8%
Cn1ncc(C#N)c1NC(=O)c1nn2cccnc2c1Cl | i | 0% | i | 3.5e-08 | 0.7%
CCOc1cc(C2NC(=O)NC(O)(C(F)(F)F)C2C(=O)c2ccccc2)ccc1OC (stereo not drawn) | . | -1%[11.4 µM] | . | . | -0.4%
C=CCc1ccc(OCC(O)CN2CCCCC2C)c(OC)c1 (stereo not drawn) | i | 6% | i | 2.5e-09 | -1.7%
CCn1cc(C(=O)NCCCN(C)C)c(=O)c2cc(F)c(N3CCN(C)CC3)cc21 | i | . | i | 2.8e-09 | .
CCOc1ccc(NC(=O)CCC(=O)n2nc(C)cc2C)cc1 | i | ? | i | 3e-08 | 2.4%
COC(=O)NCc1cccc(CNC(=O)OC)c1 | i | -7% | i | 4.1e-08 | 1.4%

Single values from above.
Result for `CCOC(=O)/C=C/S(=O)(=O)c1ccc(NC(C)=O)cc1` under AID923: -1.1%
Result for `CCn1cc(C(=O)NCCCN(C)C)c(=O)c2cc(F)c(N3CCN(C)CC3)cc21` under A647 autofl: 2.8e-09

Of the compounds above, 3 contain fluorine:
SMILES | Resorufin fluor | TSHR ag | A488 autofl | A647 autofl | AID923
O=C1CC(c2ccc(F)cc2)CC(O)=C1C=NCCN1CCN(C(=O)Nc2ccccc2)CC1 (stereo not drawn) | i | -5% | i | 1e-09 | -2.1%
CCOc1cc(C2NC(=O)NC(O)(C(F)(F)F)C2C(=O)c2ccccc2)ccc1OC (stereo not drawn) | . | -1%[11.4 µM] | . | . | -0.4%
CCn1cc(C(=O)NCCCN(C)C)c(=O)c2cc(F)c(N3CCN(C)CC3)cc21 | i | . | i | 2.8e-09 | .

Additional records follow:
SMILES | Resorufin fluor | TSHR ag | A488 autofl | A647 autofl | AID923
COCCCNC(=O)C(C#N)c1nc2ccccc2nc1N1CCCC1 (stereo not drawn) | i | . | ? | 1.6e-08 | .
O=C(Nc1cnn(Cc2ccc(Cl)cc2)c1)c1cnccn1 | i | -1% | i | 1.5e-08 | 1.5%
CC1CCCCN1CCNC(=O)CC1Oc2ccccc2NC1=O (stereo not drawn) | . | 3% | . | . | -0.5%
COc1ccc(S(=O)(=O)Nc2cc(C)c(O)c(S(=O)(=O)c3ccccc3)c2)cc1 | i | 12%[11.4 µM] | i | 6.5e-09 | 2.0%
CC(=O)c1cnc2cc(-c3ccccc3)nn2c1C | . | 4% | . | . | 5.2%
O=C(OCCOCCN=C1NS(=O)(=O)c2ccccc21)C1CC(=O)N(c2ccccc2)C1 (stereo not drawn) | . | -2% | . | . | 1.4%
CC(C)C1Cc2c(C#N)c(N)sc(=S)c2CO1 (stereo not drawn) | i | . | i | 3.9e-09 | .
CSc1ncnc2c1ncn2[C@@H]1O[C@@H](CO)[C@H](O)O[C@@H]1O | i | 10%[11.4 µM] | i | 1e-09 | -1.4%[11.5 µM]
CC(=O)OC[C@@H]1O[C@@H](O/N=C2/C[C@@H](O)[C@@H](O)[C@@H]3[C@@H]4C(=O)N(Cc5ccc6c(c5)OCO6)C(=O)[C@H]4CC[C@@H]23)[C@H](OC(C)=O)[C@H](OC(C)=O)[C@@H]1OC(C)=O | . | 0%[11.4 µM] | . | . | -5.2%[11.5 µM]
CCOc1ccc(OC(=O)c2cccnc2)cc1 | i | 4% | i | 1e-09 | -1.3%
COc1ccc2c(c1)c1nnc(SCC(=O)N3C(C)CCCC3C)nc1n2C (stereo not drawn) | i | 10% | i | 3.1e-09 | -0.7%
CCOC(=O)C1CCCN(Cc2nc(N)nc(Nc3ccc(C)cc3)n2)C1 (stereo not drawn) | i | ? | i | 1e-09 | 0.6%
Cc1ccc(-n2c(Cc3cccn3C)nnc2SCC(=O)NCc2ccc3c(c2)OCO3)cc1 | i | 10% | i | 3.6e-09 | 2.2%
CC(=O)O[C@H]1CC[C@@]2(C)C(=CC[C@@H]3[C@H]4CC[C@@H]([C@H](C)C(=O)O)[C@]4(C)CC[C@H]32)C1 | i | 17%[11.4 µM] | i | 1.8e-08 | -1.3%[11.5 µM]
COc1cccc(C2CC(c3ccc(F)cc3)Nc3nc(N)nn32)c1 (stereo not drawn) | . | 3% | . | . | 1.9%
COc1ccc(C2C(C(=O)N3CCOCC3)c3ccccc3C(=O)N2c2ccc(OC)cc2)cc1 (stereo not drawn) | i | 14% | i | 1e-09 | -0.2%
Cc1cc(NC(=O)CCS(=O)(=O)c2nc(-c3ccccc3)cc(C(F)(F)F)n2)no1 | i | 8% | i | 6.1e-09 | 0.6%
CCSc1nc(N2CCOCC2)c2ccccc2n1 | i | 12% | i | 7.1e-09 | -0.5%
O=C(Nc1ccc(N2CCOCC2)cc1)c1ccc2nc(-c3ccco3)c(-c3ccco3)nc2c1 | i | -29% | i | 1.9e-08 | 1.6%
O=C(CN1C(=O)c2ccccc2S1(=O)=O)NC1CCCCCC1 | . | 2% | . | . | -0.6%
COc1ccc2cc(C(=O)N3CCCCCC3)sc(=O)c2c1OC | i | 2%[11.4 µM] | i | 2.9e-08 | 2.7%
Cc1cc(C)n(-c2nc3ccccc3nc2N2CCN(C(=O)c3ccc(Cl)cc3)CC2)n1 | i | 29% | i | 1e-09 | 11%
COC(=O)COc1ccc(S(=O)(=O)NCc2cccnc2)cc1C | i | 28% | i | 3e-08 | -1.4%
O=C(NC1(C(F)(F)F)C(=O)Nc2c1c(=O)[nH]c(=O)n2Cc1ccco1)C1CC1 (stereo not drawn) | i | -2% | i | 9.4e-09 | 0.7%
Cn1cnc2c(NC3CCCC3)ncnc21 | i | 5% | i | 1e-09 | -3.6%
COC(=O)C(CCSC)NC(=O)CNC(=O)C1CCCCC1 (stereo not drawn) | i | 10% | i | 7.9e-09 | 0.6%
C/C(N)=C(/C#N)C(=O)CSc1nnc(SCc2ccc(Cl)cc2)s1 | i | ? | i | 3e-08 | 0.4%
CN(C)Cc1ccccc1-c1cncnc1NC1CC1 | i | 3% | i | 1e-09 | -0.7%
Cc1[nH]nc2c1C1(C(=O)N(Cc3ccc(Cl)cc3)c3ccccc31)C(C#N)=C(N)O2 (stereo not drawn) | i | -4% | i | 9.7e-09 | -1.0%
O=C(NCc1ccccn1)[C@H]1C[C@@H]1[C@H](NP(=O)(c1ccccc1)c1ccccc1)c1ccccc1 | . | 14% | . | . | 6.5%

New compounds follow:
SMILES | Resorufin fluor | TSHR ag | A488 autofl | A647 autofl | AID923
CC(C)c1ccc(S(=O)(=O)c2n[nH]n3c2nc(=O)c2ccccc23)cc1 | i | ? | i | 2e-08 | 2.5%
CC(=O)N1CCN(c2ccc(Nc3nc(C)nc4c3oc3ccccc34)cc2)CC1 | i | -1% | i | 8.3e-09 | -0.8%
O=C(OCC(=O)N1CCN(C(=O)c2ccco2)CC1)c1sc2cc(F)ccc2c1Cl | i | -3% | i | 3.3e-08 | -1.4%
O=C1N=C(N2CCCCC2)SC1=C1CCCC1 | . | -5% | . | . | 2.4%
COc1cc(NS(=O)(=O)c2ccc(F)cc2)c(C(=O)O)cc1OC | i | -3%[11.4 µM] | i | 1.2e-08 | -0.4%
O=c1cnc2cnc(N3CCNCC3)nc2n1CCc1ccccc1 | i | -9% | i | 1e-09 | 17%
COc1ccc([C@@H]2[C@H]3CN(C(C)=O)CC=C3C(C#N)=C(N)C2(C#N)C#N)c2ccccc12 | i | -6% | i | 2.8e-08 | 9.4%
COc1ccc(C)cc1S(=O)(=O)N(C)CC(=O)Nc1ccccc1 | i | 24% | i | 4.5e-09 | 2.9%
Cc1csc(NC(=O)CSc2nnc(Cc3cccn3C)n2CCc2ccccc2)n1 | . | ? | . | . | 3.5%
O=C(c1cc2ccccc2oc1=O)N1CCN(c2ccc(N3CCOCC3)nn2)CC1 | . | -5% | . | . | 3.4%
COc1ccc(Oc2ncc3ncc(=O)n(C[C@H]4CCCO4)c3n2)cc1 | i | 5% | i | 9.7e-09 | -0.6%
Cn1c(Cn2cnc3ccccc32)nnc1SCc1ccccc1 | i | 5%[11.4 µM] | i | 1e-09 | 0.2%
O=C(O)CSCc1nc2ccccc2s1 | i | 15% | i | 3.8e-09 | 1.6%
O=c1c2ccccc2sn1-c1ccc(S(=O)(=O)N2CCCCC2)cc1 | i | -5% | i | 1e-09 | -1.3%
O=C(NC1CCCc2ccccc21)C1CCC(CNc2c(N3CCOCC3)c(=O)c2=O)CC1 (stereo not drawn) | . | -3% | . | . | 2.0%
CCCOC(=O)c1ccc(OCC(O)CN2CCN(C(=O)c3ccccc3)CC2)cc1 (stereo not drawn) | i | -1%[11.4 µM] | i | 4e-08 | -1.4%
CCc1ccc(N2CC34C=CC(O3)C(C(=O)OC)C4C2=O)cc1 (stereo not drawn) | . | 0% | . | . | -1.2%
Cc1nn(Cc2ccccc2)c(N)c1C#N | . | ? | . | . | 2.1%
Cc1cnc(C(=O)Nc2ccc(N3CCOCC3)cc2)cn1 | i | 5%[11.4 µM] | i | 3.9e-08 | -0.4%

This is a subset, so the mix of outcomes need not match the whole.
